Screens from PubChem BioAssay.
Env fusion inh = HIV envelope-mediated fusion inhibition. HeLa-JRFL Env/CEM21 cell fusion, luciferase. inhibition, % at 12.3 µM. actives 1.1% (n = 360,000);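 active = mean replicate inhibition score of at least 50 and every replicate individually at or above 50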;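 note: 0% = plate neutral controls and 100% = maraviroc near 300 nM; one replicate is shown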
UUG fidelity = yeast start codon fidelity modulation; activity score, % at 18.7 µM; actives 0.13% (n = 350,000); S. cerevisiae UUG-firefly luciferase reporter, luminescence/redox ratio;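 active = replicate mean at a twofold rise or more, about +100% in these data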;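 note: firefly luciferase made from a UUG start codon reports start codon fidelity; reporter light over untreated wells divided by growth signal over untreated wells; some hits fall short of that in this replicate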
An asterisk follows results filed as active; [ ] = remark or other dose. A portion of the library. The share of hits here may be higher or lower than overall.

Screening C[C@@H]1CN([C@@H](C)CO)S(=O)(=O)c2ccc(-c3ccccc3F)cc2O[C@@H]1CN(C)S(C)(=O)=O returned Env fusion inh 28[16.7 µM] and UUG fidelity 3.
For C[C@H](O)C#Cc1cnc2c(c1)C(=O)N([C@H](C)CO)C[C@@H](C)[C@H](CN(C)CC1CCCC1)O2 the results were Env fusion inh 10[16.7 µM] and UUG fidelity -9.
`C[C@@H]1CN([C@H](C)CO)C(=O)c2cccc(NS(=O)(=O)c3cn(C)cn3)c2O[C@@H]1CN(C)CC1CC1` gave Env fusion inh -21[16.7 µM] and UUG fidelity 8.
Screening C[C@H](NC(=O)C[C@@H]1C=C[C@H](NS(=O)(=O)c2cccc(F)c2)[C@H](CO)O1)c1ccccc1 returned Env fusion inh 34[16.7 µM] and UUG fidelity 16.
`COc1cccc(C#Cc2ccc3c(c2)O[C@@H](CN(C)C(=O)c2ccccn2)[C@H](C)CN([C@H](C)CO)S3(=O)=O)c1` gave Env fusion inh 6[16.7 µM] and UUG fidelity 0.
`C[C@@H]1CN([C@@H](C)CO)C(=O)Cc2cc(NS(=O)(=O)c3ccccc3)ccc2O[C@H]1CN(C)CC1CCCCC1` gave Env fusion inh 27[16.7 µM] and UUG fidelity 18.
`C[C@H](CO)N1C[C@H](C)[C@@H](CN(C)C(=O)Nc2ccc(F)cc2)Oc2c(NC(=O)c3cnccn3)cccc2C1=O` gave Env fusion inh 0[16.7 µM] and UUG fidelity 1.
Screening O=C(N[C@H]1CC[C@H](CCn2cc(C3CCCCC3)nn2)O[C@H]1CO)c1cccnc1 returned Env fusion inh -8[16.7 µM] and UUG fidelity 9.
Screening C[C@H]1CN([C@@H](C)CO)C(=O)c2cc(/C=C/c3ccccc3)cnc2O[C@H]1CN(C)Cc1ccncc1 returned Env fusion inh -10[16.7 µM] and UUG fidelity 9.
C[C@H]1CN([C@@H](C)CO)C(=O)c2cc(-c3ccccc3)cnc2O[C@H]1CN(C)C(=O)Cc1cccnc1 was read as Env fusion inh 4[16.7 µM] and UUG fidelity -13.
Screening CN(C)CC(=O)N[C@H]1CC[C@@H](CCn2cc(C3CC3)nn2)O[C@@H]1CO returned Env fusion inh -22[16.7 µM] and UUG fidelity -1.
Screening COCC#Cc1ccc2c(c1)O[C@H](CN(C)Cc1ccncc1)[C@H](C)CN([C@@H](C)CO)S2(=O)=O returned Env fusion inh -1[16.7 µM] and UUG fidelity 9.
`C[C@H]1CN([C@@H](C)CO)C(=O)c2cc(C#CC3(O)CCCC3)cnc2O[C@H]1CN(C)C(=O)Cc1ccccc1` gave Env fusion inh 27[16.7 µM] and UUG fidelity 1.
`C[C@@H]1CN([C@H](C)CO)C(=O)c2cc(NC(=O)Nc3ccc(C(F)(F)F)cc3)ccc2O[C@@H](C)CCCCO[C@@H]1CN(C)Cc1ccc(C(F)(F)F)cc1` gave Env fusion inh 32[16.7 µM] and UUG fidelity -14.
Screening CC(=O)N(C)C[C@H]1Oc2cc(-c3ccc(C#N)cc3)ccc2S(=O)(=O)N([C@@H](C)CO)C[C@H]1C returned Env fusion inh -18[16.7 µM] and UUG fidelity 40.
For CC(C)NC(=O)Nc1ccc2c(c1)C(=O)N([C@@H](C)CO)C[C@@H](C)[C@H](CN(C)Cc1ccc(Cl)c(Cl)c1)O2 the results were Env fusion inh -22[16.7 µM] and UUG fidelity -3.
O=C(C[C@H]1C=C[C@H](NC(=O)C2CCOCC2)[C@H](CO)O1)NCC1CC1 was read as Env fusion inh -15[16.7 µM] and UUG fidelity -11.
For O=C(N[C@H]1CC[C@@H](CCn2cc(Cc3ccccc3)nn2)O[C@H]1CO)c1cnccn1 the results were Env fusion inh 7[16.7 µM] and UUG fidelity -11.
For C[C@@H]1CN([C@@H](C)CO)C(=O)c2cc(C#CC(C)(C)O)cnc2O[C@H]1CN(C)C(=O)CN(C)C the results were Env fusion inh -15[16.7 µM] and UUG fidelity 3.
CC(C)C#Cc1ccc([C@H]2[C@H](C#N)N(C(=O)C3CCC3)[C@H]2CO)cc1 was read as Env fusion inh -19[16.7 µM] and UUG fidelity -3.

Part of the list above in order of SMILES length, smallest number first:
Screening CN(C)CC(=O)N[C@H]1CC[C@@H](CCn2cc(C3CC3)nn2)O[C@@H]1CO returned Env fusion inh -22[16.7 µM] and UUG fidelity -1.
For C[C@@H]1CN([C@@H](C)CO)C(=O)c2cc(C#CC(C)(C)O)cnc2O[C@H]1CN(C)C(=O)CN(C)C the results were Env fusion inh -15[16.7 µM] and UUG fidelity 3.
`C[C@H]1CN([C@@H](C)CO)C(=O)c2cc(C#CC3(O)CCCC3)cnc2O[C@H]1CN(C)C(=O)Cc1ccccc1` gave Env fusion inh 27[16.7 µM] and UUG fidelity 1.

Further records follow.
`C[C@@H]1CN([C@H](C)CO)S(=O)(=O)c2ccc(-c3cccc(C(=O)N(C)C)c3)cc2O[C@@H]1CN(C)Cc1ccc2c(c1)OCO2` gave Env fusion inh -5[16.7 µM] and UUG fidelity 1.
C[C@@H]1CN([C@@H](C)CO)C(=O)c2cccc(NC(=O)Nc3ccc4c(c3)OCO4)c2O[C@@H]1CN(C)Cc1ccc2c(c1)OCO2 was read as Env fusion inh 1[16.7 µM] and UUG fidelity 4.
For Cc1cccc(S(=O)(=O)N(C)C[C@H]2OCc3cn(nn3)CCCC(=O)N([C@H](C)CO)C[C@H]2C)c1 the results were Env fusion inh 10[16.7 µM] and UUG fidelity -6.
CCc1csc(N2[C@H](C#N)[C@@H](c3ccc(-c4ccc(F)cc4)cc3)[C@@H]2CO)n1 was read as Env fusion inh 3[16.7 µM] and UUG fidelity -23.
CCCC#Cc1cnc2c(c1)C(=O)N([C@@H](C)CO)C[C@H](C)[C@@H](CN(C)Cc1ccccc1)O2 was read as Env fusion inh 6[16.7 µM] and UUG fidelity -2.
C[C@@H]1CN([C@@H](C)CO)C(=O)c2cc(C#Cc3cccc(F)c3)cnc2O[C@H]1CN(C)CC1CCOCC1 was read as Env fusion inh -39[16.7 µM] and UUG fidelity 1.
For CO[C@@H]1CN(C)C(=O)c2cc(NC(=O)c3ccc(F)cc3)ccc2OC[C@H](C)N(C(=O)CN(C)C)C[C@H]1C the results were Env fusion inh 6[16.7 µM] and UUG fidelity 12.
Screening C[C@H](CO)N1C[C@H](C)[C@H](CN(C)C(=O)C2CCOCC2)Oc2cc(C3=CCCC3)ccc2S1(=O)=O returned Env fusion inh -5[16.7 µM] and UUG fidelity 20.
Screening CN(C)C(=O)C[C@H]1C[C@H]2c3cc(NC(=O)NC4CCCCC4)ccc3O[C@H]2[C@H](CO)O1 returned Env fusion inh 7[16.7 µM] and UUG fidelity 4.
Cc1noc(C)c1S(=O)(=O)N(C)C[C@@H]1OCCCC[C@H](C)Oc2ccc(NS(=O)(=O)c3ccc(Cl)cc3)cc2C(=O)N([C@@H](C)CO)C[C@H]1C was read as Env fusion inh -25[16.7 µM] and UUG fidelity -13.
Screening COc1ccc(NC(=O)N(C)C[C@@H]2Oc3ncc(C4=CCCC4)cc3C(=O)N([C@@H](C)CO)C[C@@H]2C)cc1 returned Env fusion inh 7[16.7 µM] and UUG fidelity 13.
Screening COc1cccc(NC(=O)Nc2ccc3c(c2)OC[C@@H](C)NC[C@@H](C)[C@H](OC)CN(C)C3=O)c1 returned Env fusion inh 0[16.7 µM] and UUG fidelity 1.
For COCC(=O)N(C)C[C@H]1Oc2cc(C#C[C@@H](C)O)ccc2S(=O)(=O)N([C@H](C)CO)C[C@@H]1C the results were Env fusion inh -17[16.7 µM] and UUG fidelity 1.
C[C@@H]1CN([C@@H](C)CO)C(=O)c2cc(NS(C)(=O)=O)ccc2O[C@H]1CN(C)Cc1ccc(C(F)(F)F)cc1 was read as Env fusion inh -5[16.7 µM] and UUG fidelity -10.
C[C@@H]1CN([C@@H](C)CO)C(=O)c2cc(NC(=O)Cc3ccccc3)ccc2O[C@@H]1CN(C)Cc1ccc(C(F)(F)F)cc1 was read as Env fusion inh -7[16.7 µM] and UUG fidelity -1.
Cc1noc(C)c1NC(=O)Nc1ccc2c(c1)C(=O)N([C@H](C)CO)C[C@H](C)[C@H](CN(C)S(C)(=O)=O)OCCCC[C@@H](C)O2 was read as Env fusion inh -14[16.7 µM] and UUG fidelity -1.
COc1ccc(CN(C)C[C@H]2OCCCC[C@@H](C)Oc3ccc(N(C)C)cc3C(=O)N([C@H](C)CO)C[C@H]2C)cc1 was read as Env fusion inh 0[16.7 µM] and UUG fidelity 4.
C[C@@H]1CN([C@@H](C)CO)C(=O)c2cc(NS(=O)(=O)c3cccs3)ccc2O[C@@H]1CN(C)S(=O)(=O)c1cn(C)cn1 was read as Env fusion inh -2[16.7 µM] and UUG fidelity 12.
Screening Cc1ccc(S(=O)(=O)N[C@H]2CC[C@H](CC(=O)N3CCN(c4ccccc4)CC3)O[C@H]2CO)cc1 returned Env fusion inh 14[16.7 µM] and UUG fidelity 6.
For CNC[C@@H]1Oc2cc(C#Cc3cccnc3)ccc2S(=O)(=O)N([C@H](C)CO)C[C@H]1C the results were Env fusion inh -4[16.7 µM] and UUG fidelity 1.
C[C@@H]1CN([C@@H](C)CO)C(=O)c2cc(NC(=O)NC3CCCCC3)ccc2O[C@@H](C)CCCCO[C@@H]1CN(C)C(=O)Nc1ccc2c(c1)OCO2 was read as Env fusion inh 14[16.7 µM] and UUG fidelity -10.
For COc1ccc(NC(=O)Nc2ccc3c(c2)C(=O)N([C@@H](C)CO)C[C@@H](C)[C@H](CN(C)C(=O)Nc2ccc(OC)cc2)O3)cc1 the results were Env fusion inh 4[16.7 µM] and UUG fidelity -5.
`COc1cccc(-c2ccc3c(c2)O[C@@H](CN(C)Cc2ccncc2)[C@@H](C)CN([C@H](C)CO)S3(=O)=O)c1` gave Env fusion inh 13[16.7 µM] and UUG fidelity 166*.
C[C@@H]1CN([C@@H](C)CO)C(=O)Cc2cc(NC(=O)Cc3cn(C)c4ccccc34)ccc2O[C@H]1CN(C)Cc1ccc(Cl)c(Cl)c1 was read as Env fusion inh -1[16.7 µM] and UUG fidelity -2.
Cc1noc(C)c1NC(=O)Nc1ccc2c(c1)CC(=O)N([C@H](C)CO)C[C@@H](C)[C@@H](CN(C)C(=O)Nc1cccc3ccccc13)O2 was read as Env fusion inh 15[16.7 µM] and UUG fidelity 2.
`CN(C)C(=O)C[C@H]1CC[C@H](NC(=O)NC2CCCC2)[C@@H](CO)O1` gave Env fusion inh -12[16.7 µM] and UUG fidelity -2.
For Cc1ccc(-c2ccc3c(c2)O[C@H](CN(C)C(=O)C2CCC2)[C@@H](C)CN([C@@H](C)CO)S3(=O)=O)cc1 the results were Env fusion inh -7[16.7 µM] and UUG fidelity 8.
C[C@H](CO)N1C[C@H](C)[C@H](CN(C)C(=O)Nc2cccc3ccccc23)Oc2ccc(NC(=O)Nc3ccc4c(c3)OCO4)cc2CC1=O was read as Env fusion inh 17[16.7 µM] and UUG fidelity -20.
For COc1ccccc1-c1cnc2c(c1)C(=O)N([C@@H](C)CO)C[C@H](C)[C@H](CN(C)Cc1cncnc1)O2 the results were Env fusion inh -15[16.7 µM] and UUG fidelity -9.
Screening COCC#Cc1cnc2c(c1)C(=O)N([C@@H](C)CO)C[C@H](C)[C@H](CN(C)C)O2 returned Env fusion inh -31[16.7 µM] and UUG fidelity -7.

Pulled by structure from the list above, three records:
Cc1noc(C)c1NC(=O)Nc1ccc2c(c1)CC(=O)N([C@H](C)CO)C[C@@H](C)[C@@H](CN(C)C(=O)Nc1cccc3ccccc13)O2 was read as Env fusion inh 15[16.7 µM] and UUG fidelity 2.
Screening COCC#Cc1cnc2c(c1)C(=O)N([C@@H](C)CO)C[C@H](C)[C@H](CN(C)C)O2 returned Env fusion inh -31[16.7 µM] and UUG fidelity -7.
C[C@@H]1CN([C@@H](C)CO)C(=O)c2cc(NC(=O)NC3CCCCC3)ccc2O[C@@H](C)CCCCO[C@@H]1CN(C)C(=O)Nc1ccc2c(c1)OCO2 was read as Env fusion inh 14[16.7 µM] and UUG fidelity -10.

Remaining list, next part:
O=C(C[C@@H]1C[C@@H]2c3cc(NC(=O)Cc4ccncc4)ccc3O[C@@H]2[C@@H](CO)O1)NCC1CC1 was read as Env fusion inh 12[16.7 µM] and UUG fidelity -3.
Cc1ccc(CN(C)C[C@@H]2OCc3cn(nn3)CCCC(=O)N([C@H](C)CO)C[C@@H]2C)cc1 was read as Env fusion inh -2[16.7 µM] and UUG fidelity 0.
C[C@@H]1CN([C@@H](C)CO)S(=O)(=O)c2ccc(-c3cncnc3)cc2O[C@@H]1CN(C)Cc1ccccc1 was read as Env fusion inh 11[16.7 µM] and UUG fidelity -3.
CC(=O)N(C)C[C@H]1Oc2ncc(C3=CCCC3)cc2C(=O)N([C@H](C)CO)C[C@@H]1C was read as Env fusion inh -11[16.7 µM] and UUG fidelity 1.
Screening CCC(=O)N[C@@H]1CC[C@@H](CC(=O)NCCN2CCCCC2)O[C@@H]1CO returned Env fusion inh 4[16.7 µM] and UUG fidelity -8.
`C[C@@H]1CN([C@H](C)CO)C(=O)c2cc(C3=CCCCC3)cnc2O[C@@H]1CN(C)C(=O)NC1CCCC1` gave Env fusion inh 14[16.7 µM] and UUG fidelity 1.
Screening C[C@@H]1CN([C@H](C)CO)S(=O)(=O)c2ccc(-c3cccc(C#N)c3)cc2O[C@H]1CN(C)Cc1cccc(F)c1 returned Env fusion inh -7[16.7 µM] and UUG fidelity 33.
C[C@@H]1CCCCO[C@H](CN(C)C(=O)Nc2ccccc2)[C@@H](C)CN([C@H](C)CO)C(=O)c2cc(NS(=O)(=O)c3ccc(Cl)cc3)ccc2O1 was read as Env fusion inh -14[16.7 µM] and UUG fidelity -1.
For C/C=C/c1cnc2c(c1)C(=O)N([C@@H](C)CO)C[C@H](C)[C@@H](CN(C)C(=O)CN1CCOCC1)O2 the results were Env fusion inh -4[16.7 µM] and UUG fidelity -4.
CC(C)NC(=O)N(C)C[C@@H]1Oc2ccc(NC(=O)Nc3ccc(C(F)(F)F)cc3)cc2C(=O)N([C@H](C)CO)C[C@@H]1C was read as Env fusion inh -7[16.7 µM] and UUG fidelity -5.
